# Screening data deposited in PubChem by Center for Chemical Genomics, University of Michigan.
# CDC25B-CDK2 inh = human CDC25B-CDK2/CyclinA binding inhibition. z-score (no concentration beside the values). P30305+P24941. 94,000 compounds, 0.72% hits. HTRF CDC25B-CDK2/CyclinA binding, anti-His/anti-Flag; stronger effect = higher value;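 note: score is relative to mean and SD of negative controls; strong numbers were not always called active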
# HIV TAR-Tat = HIV-1 TAR-Tat binding disruption. AID 1259389. 100,000 compounds, 0.6% hits. HIV-1 TAR RNA, Tat peptide displacement FRET; stronger effect = higher value. z-score (concentration not given with the values);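 note: score is relative to mean and SD of negative controls; some compounds called inactive have numbers as strong as hits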
# The depositor's hits bear a star; nt = not tested or not shown; & = joins results of further samples.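 Rule for the calls: active = z-score from 3 up in half or more of its runs; inactive = the rest.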 Rows are unselected (roughly 0.87% active in at least one column).
# The first 3 compounds (preview)
SMILES,CDC25B-CDK2 inh,HIV TAR-Tat
Cc1ccnc(NC(c2cc(C)ccc2O)c2ccc3cccnc3c2O)c1 (stereo not drawn),-1.1,0.43
CCCCC(CC)CNS(=O)(=O)c1cc(Br)cc2c1N(C(=O)CC)CC2 (stereo not drawn),-0.15,0.36
O=C(Cn1c(=O)sc2ccccc21)NCc1ccccc1,0.01,0.57

# All compounds of this part (from the top)
SMILES,CDC25B-CDK2 inh,HIV TAR-Tat
Cc1ccnc(NC(c2cc(C)ccc2O)c2ccc3cccnc3c2O)c1 (stereo not drawn),-1.1,0.43
CCCCC(CC)CNS(=O)(=O)c1cc(Br)cc2c1N(C(=O)CC)CC2 (stereo not drawn),-0.15,0.36
O=C(Cn1c(=O)sc2ccccc21)NCc1ccccc1,0.01,0.57
CCOc1cc(Br)cc(C2NC(=O)c3c(sc4c3CCN(C)C4)N2)c1O (stereo not drawn),-0.86&-1.2,0.01
CC(C)(C)c1cc2n(n1)CC(C)(C(=O)NC1CCCCC1)N(CC1CCCO1)C2=O (stereo not drawn),nt,1.2
O=C(NCCCN1CCN(c2ccc(F)cc2)CC1)Nc1ccc(Cl)cc1,-1,-1.3
Cc1cc(C)cc(C(=O)Nc2c(C)nc3c(C)cccn3c2=O)c1,nt,0.71
CCC1(CC)Cc2ccccc2-c2nc(CSc3nc4ccccc4c(=O)[nH]3)[nH]c(=O)c21,-4.8,0.82
COC(=O)C1=C(C(=O)OC)SC(=C2C(=S)C(C)(C)N(C)c3ccc(C)cc32)S1,-0.97,-13
CN(Cc1ccco1)C(=O)C1CCN(S(=O)(=O)c2cccc3nonc23)CC1,nt,1.9
O=C(c1ccccc1)C(C(=O)N1CCc2ccccc2C1)n1cc(Cl)ccc1=O (stereo not drawn),12,-1.8
Cn1cnc2c1c(=O)n(Cc1ccc(Br)cc1)c(=O)n2C,-0.72,nt
CCC1CC(C)(C(=O)Nc2ccc(S(N)(=O)=O)cc2)OC1=O (stereo not drawn),-0.78,-0.45
CCOC(=O)c1c(C)[nH]c(C)c1S(=O)(=O)NCc1cccs1,nt,0.47
O=C(CC1(O)C(=O)Nc2ccc(Cl)cc21)c1ccccc1Cl (stereo not drawn),nt,0.52
O=S(=O)(NCc1cccn1Cc1cccc(F)c1)c1ccccc1,nt,0.95
COc1cc(OC)c(NS(=O)(=O)c2ccc3c(c2)NC(=O)CC(=O)N3)cc1Cl,nt,0.93
O=C(Nc1cccc(Br)c1)c1cc(-c2cccs2)on1,0.48,0.18
COc1ccc(Cc2nnc3sc(-c4cccnc4)nn23)cc1,-1.2,0.15
CC(C)Cn1c(=O)c2sccc2n2c(CCCC(=O)N3CCN(c4ncccn4)CC3)nnc12,nt,-0.26
COc1ccc(-c2cc3nc(C)cc(NC4CCCC4)n3n2)cc1OC,-0.86,0.09
O=c1c2cccnc2[nH]c(=S)n1Cc1ccc(Cl)cc1,-1.5,nt
CC(C)CCNC(=O)C1(C)Cn2nc(C(=O)NC3CC3)cc2C(=O)N1C (stereo not drawn),nt,2
Cc1cccc(S(=O)(=O)Nc2cc(-c3cn4ccc(C)cc4n3)ccc2C)c1,-1.6,2.3
CC(C)(C)S(=O)(=O)c1ccc2n[nH]c(=O)n2n1,-2,0.85
CC(C)NC(=O)c1sc(=S)n2c1[nH]c(=O)c1ccc(C(=O)NC3CCCCC3)cc12,nt,2.6
Cc1ccc(-c2nc3nc(C)cc(N4CCN(CCO)CC4)n3n2)cc1,-1.6,1.4
CC(=O)Nc1ccc(/C=C/[N+](=O)[O-])cc1,-0.96,nt
COC(=O)c1ccc(N2C(=O)CSC2c2ccc(Br)cc2)cc1 (stereo not drawn),-2.3,0.89
Nc1ncc(C(=O)Nc2cccc(F)c2)c(C(F)(F)F)n1,-1.4,nt
N#Cc1cnn(C(=O)c2cccs2)c1C1CC1,-0.67,nt
Cc1csc(NC(=O)CSc2nccn2Cc2ccco2)n1,nt,0.09
N#CNC(=Nc1ccccc1C(F)(F)F)N1CCCC1,-2.6,nt
COc1ccc(C(=O)NCc2csc(-c3cccs3)n2)cc1,-0.59,nt
Cn1c(C(=O)N2CCC(C(=O)NCCCN3CCc4ccccc4C3)CC2)cc2sccc21,-0.33,0.08
Cc1nc(C)c(CCNS(=O)(=O)c2cc(C)c(C)cc2C)s1,nt,1.4
COCCCN(Cc1cc(OC)c(OC)c(OC)c1)C(=S)Nc1cccc(SC)c1,-1.7,nt
Cc1csc2nc(COC(=O)C(C)Oc3ccccc3)cc(=O)n12 (stereo not drawn),nt,-0.34
O=C1CCSc2ccc(S(=O)(=O)NCc3ccc(Cl)cc3)cc2N1,nt,-1.6
CSc1nn(CC(=O)Nc2ccc3c(c2)OCO3)c(N)c1S(=O)(=O)c1ccccc1,nt,-0.76
COCCCNC(=O)C1CCCN(c2nnc(N3CCCC3=O)s2)C1 (stereo not drawn),0.48,2.4
CCOC(=O)c1cnc2cc3c(cn2c1=O)CCCC3,0.73,1.2
Cc1ccc(CN2C(=O)N(c3cc(C)cc(C)c3)C3CS(=O)(=O)CC32)cc1 (stereo not drawn),nt,0.34
COc1cc(-c2n(C)c3ccccc3[n+]2C)ccc1O,0.2,1.6
CSc1ncc(Cl)c(C(=O)Oc2cc(C)cc(C)c2)n1,1.4,0.69
Cc1ccc2oc(=O)c3cnn(CC(=O)N(C)Cc4ccco4)c3c2c1,-0.97,nt
O=C(NCSC1=NCCS1)c1ccccc1,-2.2,1.9
COc1ccc(C2=NN(c3nc(C)cs3)C(c3ccc(F)cc3)C2)cc1 (stereo not drawn),-2,2.4
O=C1NC(=O)C(C2SC(=O)NC2=O)S1 (stereo not drawn),-0.64,nt
CCn1cc(C2=NOC(C(=O)N3CCOCC3)C2)c(C)n1 (stereo not drawn),-0.31,0.84
CC1(C)Cc2c(sc3c2c(=O)n(C2CCCCC2)c(=O)n3CC(N)=O)CO1,-1.3,1.9
CN1CCN(c2ncnc3onc(-c4cccc(Cl)c4)c23)CC1,-1.1,-0.78
Cc1ccc(S(=O)(=O)N2CCCN(c3nc4ccccc4n4cccc34)CC2)cc1,1.7,1.2
NC(=O)c1cc(S(=O)(=O)N2CCCCC2)cs1,nt,1.4
O=C(COC(=O)c1cccc(Br)c1)c1ccc(Br)cc1,-0.76,nt
NC(=O)c1ccccc1NC(=O)CCN1C(=O)c2cccc([N+](=O)[O-])c2C1=O,-3.5,nt
CCNS(=O)(=O)c1ccc(-c2cc(C)no2)s1,nt,-0.15
CC1=NN(c2ccccc2)C(=O)C1C(=O)c1ccc(Br)cc1 (stereo not drawn),-2.3,0.17
C#CCN1C(=O)c2ccccc2S1(=O)=O,-0.85,-1.2
Cc1[nH]nc2c1C(c1ccccc1OCc1ccccc1Cl)C(C#N)=C(N)O2 (stereo not drawn),-0.46,-0.46

# Next section
SMILES,CDC25B-CDK2 inh,HIV TAR-Tat
CCCCn1c(=O)[nH]c(=O)c2sc(N)nc21,-2,0.78
CN(C)CCCN(C(=O)CN1C(=O)CCC1=O)c1nc2ccc(Br)cc2s1,nt,0.93
CCOc1ccc(S(=O)(=O)n2cnc(C)c2)c(C)c1C,-0.69,0.35
O=S(=O)(Nc1cccc(Cl)c1)c1cccs1,-0.94,0.04
COc1cccc(C2CC(c3ccc(Br)cc3)=NN2C(=O)CCC(=O)O)c1OC (stereo not drawn),-2.9,1.2
Cc1ccc(CNS(=O)(=O)c2ccc3c(c2)CC(C)N3C(=O)C2CCC2)cc1 (stereo not drawn),nt,0.3
Cc1nc2c3cccnc3nn2c(C)c1CCC(=O)Nc1ccc2c(c1)OCCO2,-0.68,-1.3
Cc1ccc(S(=O)(=O)c2nc(S(=O)(=O)c3ccccc3)sc2N2CCC(O)CC2)cc1,-0.03,0.55
Cc1cc(C)n2nc(NCc3c(F)cccc3Cl)nc2n1,-1.8,0.02
CC1(C)Cc2c(sc3ncnc(N)c23)CO1,-1.7,nt
Cc1cc(=O)n2nc(N3CCC(C(=O)Nc4ccc(Br)cc4F)CC3)sc2n1,-1.8,1.5
Cn1c(C(=O)N2CCCC(C(=O)NCc3ccccn3)C2)cc2sccc21 (stereo not drawn),-2.1,0.1
O=C1C2C3C=CC(CO)(O3)C2C(=O)N1c1cccc2ccccc12 (stereo not drawn),-1.4,1.1
COc1cc2c(cc1OC)CN(C(=O)C1Cc3ccccc3CN1S(=O)(=O)c1cccs1)CC2 (stereo not drawn),0.04,0.62
CSc1ccc(C2c3c(-c4ccccc4O)n[nH]c3C(=O)N2CCCO)cc1 (stereo not drawn),-0.14,0.43
Cc1c(C(=O)O)sc2nc(C(F)(F)F)nn12,-2.4,nt
CCOCCCNc1nc(Nc2ccccc2)c2cnn(C)c2n1,nt,1.4
CCOC(=O)CN1C(=O)C(O)(CC(=O)c2ccc(C(C)C)cc2)c2ccccc21 (stereo not drawn),-0.31,0.94
O=C(c1ccc2c(=O)n3c(nc2c1)CCCC3)N1CCOCC1,nt,1.8
Cn1c(SCC(=O)N2CCc3ccccc32)ncc(C(=O)Nc2ccc(Cl)cc2)c1=O,nt,0.8
Cc1sc2ncn(CC(=O)NC(C)C)c(=O)c2c1S(=O)(=O)N1CC(C)CC(C)C1 (stereo not drawn),0.64,nt
Cn1c(SCC(=O)Nc2ccc3[nH]c(=O)[nH]c3c2)nnc1-c1cc2ccccc2o1,nt,2.9
COc1cc(NS(=O)(=O)c2ccc3c(c2)CCN3)cc(OC)c1,nt,1.2
CCc1nn2c(N)c(C#N)cnc2c1-c1ccc(F)cc1,-1.4,0.7

# Look-ups from above.
# O=C1C2C3C=CC(CO)(O3)C2C(=O)N1c1cccc2ccccc12 (stereo not drawn) – HIV TAR-Tat = 1.1
# CCc1nn2c(N)c(C#N)cnc2c1-c1ccc(F)cc1 – HIV TAR-Tat = 0.7
# COc1cc2c(cc1OC)CN(C(=O)C1Cc3ccccc3CN1S(=O)(=O)c1cccs1)CC2 (stereo not drawn) – HIV TAR-Tat = 0.62
# CSc1ccc(C2c3c(-c4ccccc4O)n[nH]c3C(=O)N2CCCO)cc1 (stereo not drawn) – HIV TAR-Tat = 0.43
# Cn1c(SCC(=O)N2CCc3ccccc32)ncc(C(=O)Nc2ccc(Cl)cc2)c1=O – HIV TAR-Tat = 0.8

# Going on with the list.
SMILES,CDC25B-CDK2 inh,HIV TAR-Tat
CCc1ccc(N(Cc2cc(=O)n3ccccc3n2)C2=NC3CS(=O)(=O)CC3S2)cc1 (stereo not drawn),-0.18,-0.96
CCOC(=S)SCc1c(F)cccc1Cl,-1.7,nt
CC(=O)Nc1nonc1-c1nnc(SCc2ccc(C)cc2)n1C,-0.76,0.62
O=C(c1cnn(-c2ccccc2)c1-n1cccc1)N1CCCC(C(=O)N2CCc3ccccc3C2)C1 (stereo not drawn),-1.2,0.53
Cc1ccc2n1CCN(C(=O)Nc1ccccc1Br)C2C(C)C (stereo not drawn),nt,-0.27
Cn1ncc2c(Nc3cccc(Cl)c3)nc(NCCN3CCOCC3)nc21,nt,2.9
O=C(c1ccc2c(c1)sc1nc(-c3ccc(F)cc3)cn12)N1CCN(C(=O)c2ccco2)CC1,nt,0.46
Cc1ccc(S(=O)(=O)n2nc(C)c(S(=O)(=O)N3CCCCC3)c2C)cc1,nt,0.9
Cn1nc(C(=O)NCc2ccc3c(c2)OCO3)c2c1-c1ccccc1S(=O)(=O)C2,-1.4,1.6
COC(=O)c1ccc(Cl)cc1NS(=O)(=O)c1ccc(OC)c(OC)c1,-1.4,nt
O=S1(=O)N=C(c2cccs2)Nc2ccc(S(=O)(=O)N3CCCCC3)cc21,nt,1.1
Cn1cccc1-c1cc2n(n1)CCC(=O)N2CCCC(=O)NCCCN1CCOCC1,nt,0.12
COc1ccc(-c2noc(N3CCc4ccccc43)n2)cc1OC,nt,0.37
O=C(CN1c2ccccc2S(=O)(=O)c2ccccc21)Nc1cccnc1,2.5,1.6
CC1(C)Cc2nc3oc4c(NCCc5ccccc5)ncnc4c3cc2CO1,nt,0.06
O=C(O)c1cc(-c2ccc(F)cc2)nc2ccccc12,nt,1.8
Cc1nc2ccccc2c2oc(C(=O)NCCc3ccsc3)cc12,-1.1,1.5
Cn1c(=O)c2c(-c3ccccc3)n(-c3ccc(O)cc3)cc2n(C)c1=O,-1.1,0.94
CCCNC(=O)c1noc(C(C)C)c1[N+](=O)[O-],-1.5,-0.05
CCCCCCn1c(=O)c2c(nc3n2CCS3)n(C)c1=O,0.82,1.3
CCc1ccc(C2OCCn3c(-c4ccccc4)c4c(=O)n(C)c(=O)n(C)c4c32)cc1 (stereo not drawn),-1.2,-0.25
Cc1nc2nc(NCc3cccs3)[nH]n2c(=O)c1CCC(=O)Nc1ccccn1,-0.3,-1.4
COc1ccc2[nH]c(=O)c(C(=O)O)cc2c1,nt,0.82
CCOc1cc(S(=O)(=O)n2ccnc2)ccc1Cl,-0.86,2.8

# Looked up by structure from the list above:
SMILES,CDC25B-CDK2 inh,HIV TAR-Tat
Cc1nc2nc(NCc3cccs3)[nH]n2c(=O)c1CCC(=O)Nc1ccccn1,-0.3,-1.4
CC1(C)Cc2nc3oc4c(NCCc5ccccc5)ncnc4c3cc2CO1,nt,0.06
Cn1c(=O)c2c(-c3ccccc3)n(-c3ccc(O)cc3)cc2n(C)c1=O,-1.1,0.94
O=C(CN1c2ccccc2S(=O)(=O)c2ccccc21)Nc1cccnc1,2.5,1.6
CCCNC(=O)c1noc(C(C)C)c1[N+](=O)[O-],-1.5,-0.05

# More records
SMILES,CDC25B-CDK2 inh,HIV TAR-Tat
O=C(NCCc1ccco1)c1cnc2sc(N3CCCC3)nn2c1=O,nt,0.99
COc1cc(CNc2nnn(C)n2)ccc1OCc1c(F)cccc1Cl,nt,1
CC(=O)Nc1ccc(C)cc1-c1nnc(SC(C)C(=O)Nc2c(C)cc(C)cc2C)[nH]c1=O (stereo not drawn),nt,0.82
C=C(C)Cn1c(COc2ccccc2OC)nc2ccccc21,5.5,1.5
CC(C(=O)Nc1ccc(Br)cn1)N1Cc2ccccc2C1=O (stereo not drawn),nt,0.78
CSCC(CSC)OC(=O)NC(=O)c1sc(C#N)c(C)c1C,-1.4,nt
CCc1nn2c(=O)cc(CSc3nnc(NC(C)=O)s3)nc2s1,nt,1.3
CC1Cc2cc(S(=O)(=O)Nc3ccccc3N3CCN(C)CC3)ccc2N1C(=O)C1CC1 (stereo not drawn),nt,0.41
